High-throughput results deposited in PubChem by Johns Hopkins Ion Channel Center.
KCNQ2 block – KCNQ2 potassium channel inhibitors, primary screen, cell-based, CHO-K1, FluxOR thallium flux, B-score (AID 2156) | 20 min; active compounds read low; only compounds with negative scores are shown here; some inactives read as strong as hits | B-score at 10 µM | actives 1.1% (n = 310,000);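 active means fluorescence ratio B-score at most minus 3 library SDs, with starting brightness B-score within 2 library SDs, cut at about -5.5 in these data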
Target sequence (O88943 whole entry, looked up): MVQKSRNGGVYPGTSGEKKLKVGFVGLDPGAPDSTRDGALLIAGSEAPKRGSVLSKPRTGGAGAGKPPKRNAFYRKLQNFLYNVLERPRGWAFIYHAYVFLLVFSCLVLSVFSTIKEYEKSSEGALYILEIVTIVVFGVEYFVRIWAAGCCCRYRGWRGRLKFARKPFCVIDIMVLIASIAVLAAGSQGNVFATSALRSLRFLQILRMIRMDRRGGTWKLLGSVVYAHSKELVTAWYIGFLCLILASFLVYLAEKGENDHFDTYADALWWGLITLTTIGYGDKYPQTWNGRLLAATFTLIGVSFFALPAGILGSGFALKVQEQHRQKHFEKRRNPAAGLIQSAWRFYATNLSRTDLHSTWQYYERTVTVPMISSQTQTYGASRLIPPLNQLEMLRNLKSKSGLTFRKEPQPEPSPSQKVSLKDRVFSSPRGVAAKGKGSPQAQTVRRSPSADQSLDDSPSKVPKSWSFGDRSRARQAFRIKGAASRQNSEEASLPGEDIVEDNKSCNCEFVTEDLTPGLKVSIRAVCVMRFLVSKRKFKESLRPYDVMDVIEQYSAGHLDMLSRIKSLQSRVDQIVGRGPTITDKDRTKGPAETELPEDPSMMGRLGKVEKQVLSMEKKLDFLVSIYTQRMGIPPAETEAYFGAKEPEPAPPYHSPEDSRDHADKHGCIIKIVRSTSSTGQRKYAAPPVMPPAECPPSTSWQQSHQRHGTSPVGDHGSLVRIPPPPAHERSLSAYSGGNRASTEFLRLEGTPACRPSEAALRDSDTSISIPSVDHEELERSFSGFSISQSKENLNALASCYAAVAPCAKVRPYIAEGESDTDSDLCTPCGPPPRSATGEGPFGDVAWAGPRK
KCNQ2 block baseline – also measured in KCNQ2 block; calls as there; B-score; measured here: initial fluorescence intensity artifact check;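 brightness before thallium and not channel activity; 0 = typical well and far values either way flag optical interference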
The depositor's hits bear a star. Some of the compounds tested; rates above refer to the full screens.

Screening c1csc(C(c2nnnn2C2CCCCC2)N2CCN(c3nc4ccccc4s3)CC2)c1 (stereo not drawn) returned KCNQ2 block inactive and KCNQ2 block baseline -3.8.
COc1ccc2nc(NC(=O)CN(C)S(=O)(=O)c3cccs3)sc2c1 was read as KCNQ2 block inactive and KCNQ2 block baseline 1.4.
For O=C(NCCc1ccccc1)C(=O)NCC1OCCN1S(=O)(=O)c1ccc(F)cc1 (stereo not drawn) the results were KCNQ2 block inactive and KCNQ2 block baseline 1.6.
For O=C(O)c1ccc2c(=O)n3c(nc2c1)/C(=C/c1ccccc1OC(F)F)CC3 the results were KCNQ2 block inactive and KCNQ2 block baseline -0.14.
Cc1ccc(C(=O)N2CCN(CCNC(=O)C(=O)Nc3ccc(Cl)cc3)CC2)cc1 was read as KCNQ2 block inactive and KCNQ2 block baseline 0.44.
Screening Cc1ccc(CCN2CC(C(=O)NC(C)C)CC2=O)cc1 (stereo not drawn) returned KCNQ2 block inactive and KCNQ2 block baseline 0.85.
Screening N#Cc1ccc(CN(c2ccncc2)S(=O)(=O)c2ccccc2)cc1 returned KCNQ2 block inactive and KCNQ2 block baseline 3.
Cc1ccc2c(cnn2C(=O)CCC(=O)NCc2ccccc2Cl)c1 was read as KCNQ2 block inactive and KCNQ2 block baseline -0.23.
For COC(=O)C1=C(C)N(C(C)c2ccccc2)C(=O)/C1=C\c1ccco1 (stereo not drawn) the results were KCNQ2 block -8.5* and KCNQ2 block baseline -2.3*.
Screening O=C(NC1CC1)c1ccc(CS(=O)(=O)c2c(Cl)cccc2Cl)o1 returned KCNQ2 block inactive and KCNQ2 block baseline -1.5.
For O=C(CSc1nnc(-c2c[nH]c3ccccc23)o1)N(Cc1ccccc1)c1ccc(F)cc1 the results were KCNQ2 block inactive and KCNQ2 block baseline 0.35.
For COc1ccc(NC(=O)COc2coc(CN3CCc4ccccc43)cc2=O)cc1 the results were KCNQ2 block inactive and KCNQ2 block baseline -1.4.
Screening O=C(NCc1ccc(C(F)(F)F)cc1)C1CC(c2cccc(F)c2)=NO1 (stereo not drawn) returned KCNQ2 block inactive and KCNQ2 block baseline -1.4.
Screening N#Cc1c(SCc2ccccc2)sc(C(=O)c2ccccc2)c1N returned KCNQ2 block inactive and KCNQ2 block baseline -3.5.
Screening Cc1ccc(NC(=O)COC(=O)[C@H](C)NC(=O)c2ccccc2)cc1S(=O)(=O)N1CCOCC1 returned KCNQ2 block inactive and KCNQ2 block baseline 0.93.

Sorted by heavy-atom count (falling): some entries from above
For O=C(NCCc1ccccc1)C(=O)NCC1OCCN1S(=O)(=O)c1ccc(F)cc1 (stereo not drawn) the results were KCNQ2 block inactive and KCNQ2 block baseline 1.6.
Screening O=C(NCc1ccc(C(F)(F)F)cc1)C1CC(c2cccc(F)c2)=NO1 (stereo not drawn) returned KCNQ2 block inactive and KCNQ2 block baseline -1.4.
Screening Cc1ccc(CCN2CC(C(=O)NC(C)C)CC2=O)cc1 (stereo not drawn) returned KCNQ2 block inactive and KCNQ2 block baseline 0.85.

The results go on.
For Cc1cc(NC(c2ccc(Cl)cc2)c2ccc3cccnc3c2O)no1 (stereo not drawn) the results were KCNQ2 block inactive and KCNQ2 block baseline -1.4.
For CCCCOC(=O)C1=C(C)Nc2ncnn2C1c1cccc(OC)c1 (stereo not drawn) the results were KCNQ2 block inactive and KCNQ2 block baseline -0.32.
O=C(Nc1ccc(-n2cnnn2)cc1)C1CCC1 was read as KCNQ2 block inactive and KCNQ2 block baseline 0.01.
`C/C=C(\C)CN1CCc2cc(OC)c(OC)cc2C1` gave KCNQ2 block inactive and KCNQ2 block baseline -0.09.
For CCOc1ccc2c(c1)-c1c(ssc1=S)C(C)(C)N2C the results were KCNQ2 block -7* and KCNQ2 block baseline -2.7*.
`Cc1onc(-c2ccccc2Cl)c1C(=O)N1CCOC12CCN(c1cccc(F)n1)CC2` gave KCNQ2 block inactive and KCNQ2 block baseline 1.
Screening CCN(CC)S(=O)(=O)c1ccc(N2CCOCC2)c(NC(=O)CC2OC(=O)c3ccccc32)c1 (stereo not drawn) returned KCNQ2 block inactive and KCNQ2 block baseline 0.5.
`O=C(O)c1ccc(S(=O)(=O)N2CCCCCC2)cc1` gave KCNQ2 block inactive and KCNQ2 block baseline 0.84.
CCOC(=O)C1CCCN(C(=O)CSc2ccccc2)C1 (stereo not drawn) was read as KCNQ2 block inactive and KCNQ2 block baseline 1.9.
`CC(=NCC1CCCO1)c1c(O)[nH]c(=O)[nH]c1=O` (stereo not drawn) gave KCNQ2 block inactive and KCNQ2 block baseline -0.57.
`O=C(Nc1ccc(F)cc1)C(Sc1nc2ccccc2[nH]1)c1ccccc1` (stereo not drawn) gave KCNQ2 block inactive and KCNQ2 block baseline 1.8.
O=C(NCc1ccco1)C(c1ccncc1)N(C(=O)Cn1nnc2ccccc21)c1ccccc1 (stereo not drawn) was read as KCNQ2 block inactive and KCNQ2 block baseline 0.84.
`Cc1oc(=O)c(NC(=O)c2cccc(Cl)c2)cc1C(=O)c1ccccc1` gave KCNQ2 block inactive and KCNQ2 block baseline -0.62.
Screening Cc1ccc(S(=O)(=O)Nc2nc(C)c(NC(=O)Nc3ccc(Cl)cc3Cl)s2)cc1 returned KCNQ2 block inactive and KCNQ2 block baseline -2.5.
Screening CN(C)C(=O)CCN1CCOCC1 returned KCNQ2 block inactive and KCNQ2 block baseline 0.19.
Screening COc1ccccc1NC(=O)CSc1ccc2nnc(-c3ccccn3)n2n1 returned KCNQ2 block inactive and KCNQ2 block baseline -0.09.
For O=C(CSc1ncnc2c1nnn2-c1ccc(F)cc1)NCC1CCCO1 (stereo not drawn) the results were KCNQ2 block inactive and KCNQ2 block baseline -0.67.
For O=C(CCNc1ccc(F)cc1)c1cccc([N+](=O)[O-])c1 the results were KCNQ2 block inactive and KCNQ2 block baseline -0.7.
Screening CCOCC(=O)Nc1nc2ccc(S(C)(=O)=O)cc2s1 returned KCNQ2 block inactive and KCNQ2 block baseline 0.42.
For CCNc1c2c3c(cccc3n(C)c1=O)C(=O)c1ccccc1-2 the results were KCNQ2 block inactive and KCNQ2 block baseline 100.
For O=[N+]([O-])c1cccc(/C=N/Nc2cc(N3CCOCC3)ncn2)c1 the results were KCNQ2 block inactive and KCNQ2 block baseline -0.81.
Screening CCc1cc(C(c2ccncc2)N2CCN(C)CC2)c(NC(=O)c2ccccc2)s1 (stereo not drawn) returned KCNQ2 block inactive and KCNQ2 block baseline -0.01.
For CCN(CC)S(=O)(=O)c1ccc(F)c(C(=O)NCCC(C)C)c1 the results were KCNQ2 block inactive and KCNQ2 block baseline 0.09.
O=C(NCC1CCCN(C(=O)c2cscn2)C1)c1ccccc1Cl (stereo not drawn) was read as KCNQ2 block inactive and KCNQ2 block baseline -0.53.
Screening CCOC(=O)Cn1c(S(=O)(=O)Cc2ccccc2Cl)nc(-c2ccccc2)c1-c1ccccc1 returned KCNQ2 block inactive and KCNQ2 block baseline -2.
`Cc1cccc(N2CCN(C(=O)Cc3ccc(-n4c(=O)[nH]c5ccsc5c4=O)cc3)CC2C)c1` (stereo not drawn) gave KCNQ2 block inactive and KCNQ2 block baseline 0.77.
`N=c1n(CC(=O)c2cccc([N+](=O)[O-])c2)c2ccccc2n1Cc1ccccc1` gave KCNQ2 block inactive and KCNQ2 block baseline 0.2.
COc1ccccc1N1CCN(/N=C/c2cc(Br)ccc2F)CC1 was read as KCNQ2 block -11* and KCNQ2 block baseline 0.72*.
Screening C=CCn1c(SCC(=O)NCc2ccccc2)nnc1-c1cc(Br)ccc1O returned KCNQ2 block inactive and KCNQ2 block baseline -0.05.
For O=C(Nc1ncc(Cc2cccc(Cl)c2)s1)C1=NCCN1 the results were KCNQ2 block inactive and KCNQ2 block baseline 2.1.
Cc1cc(C)c(C)c(S(=O)(=O)N2CCC(C(=O)Nc3ccccc3N3CCOCC3)CC2)c1C was read as KCNQ2 block inactive and KCNQ2 block baseline -2.2.
Screening CCCS(=O)(=O)C(=C(Nc1ccccc1)Nc1ccccc1)S(=O)(=O)CCC returned KCNQ2 block inactive and KCNQ2 block baseline -0.06.
`CC1CC(C)CN(C(=O)COC(=O)CCCN2C(=O)c3cccc4cccc(c34)C2=O)C1` (stereo not drawn) gave KCNQ2 block inactive and KCNQ2 block baseline 0.69.
For COc1ccc(C2=NCCn3nc4cc([N+](=O)[O-])ccc4c32)cc1 the results were KCNQ2 block inactive and KCNQ2 block baseline 1.1.
For COc1cc2c(cc1OC)CN(CC(=O)Nc1ccc(C)c(C)c1)CC2 the results were KCNQ2 block inactive and KCNQ2 block baseline 0.1.
CCOc1ccc(C(=O)NC(=S)Nc2ccccc2N2CCOCC2)cc1Br was read as KCNQ2 block inactive and KCNQ2 block baseline -0.92.
COc1ccc(F)cc1S(=O)(=O)N1CCC(C(N)=O)CC1 was read as KCNQ2 block inactive and KCNQ2 block baseline -0.66.
Screening O=C(NC1CC(=O)N(c2ccc(F)cc2)C1)N1CCN(C(=O)c2ccco2)CC1 (stereo not drawn) returned KCNQ2 block inactive and KCNQ2 block baseline -0.63.
CCCc1cc(C(=O)N2CCN(c3ccccc3C)CC2)cs1 was read as KCNQ2 block -5.7* and KCNQ2 block baseline -2*.
For CC(=O)Nc1ccc(NC(=O)CSc2nnnn2C2CCCCC2)cc1 the results were KCNQ2 block inactive and KCNQ2 block baseline -0.38.
For O=C(NC(=S)Nc1cccc(NC(=O)c2ccc(Cl)cc2Cl)c1)c1cccs1 the results were KCNQ2 block inactive and KCNQ2 block baseline 0.05.
Cc1nnc(SCC(=O)Nc2nnc(-c3ccccc3)o2)s1 was read as KCNQ2 block inactive and KCNQ2 block baseline 1.4.
Screening CCOc1ccc(-c2nc(C#N)c(N3CCN(CC)CC3)o2)cc1 returned KCNQ2 block inactive and KCNQ2 block baseline -0.6.
Screening C[N+](C)(CC#N)C/C=C\c1ccccc1 returned KCNQ2 block inactive and KCNQ2 block baseline -0.29.
CC1(c2ccccc2)CC(c2ccccc2)=Nc2nonc2N1 (stereo not drawn) was read as KCNQ2 block inactive and KCNQ2 block baseline -0.18.

5 compounds drawn at random from the list so far, as already listed:
For O=C(Nc1ncc(Cc2cccc(Cl)c2)s1)C1=NCCN1 the results were KCNQ2 block inactive and KCNQ2 block baseline 2.1.
Screening O=C(NC1CC(=O)N(c2ccc(F)cc2)C1)N1CCN(C(=O)c2ccco2)CC1 (stereo not drawn) returned KCNQ2 block inactive and KCNQ2 block baseline -0.63.
COc1ccc(F)cc1S(=O)(=O)N1CCC(C(N)=O)CC1 was read as KCNQ2 block inactive and KCNQ2 block baseline -0.66.
Screening CCOc1ccc(-c2nc(C#N)c(N3CCN(CC)CC3)o2)cc1 returned KCNQ2 block inactive and KCNQ2 block baseline -0.6.
For O=C(O)c1ccc2c(=O)n3c(nc2c1)/C(=C/c1ccccc1OC(F)F)CC3 the results were KCNQ2 block inactive and KCNQ2 block baseline -0.14.

(continued)
O=C1c2cccc(OCC(=O)N3N=C(c4cccs4)CC3c3ccc(F)cc3)c2CCN1Cc1ccccc1 (stereo not drawn) was read as KCNQ2 block -5.8* and KCNQ2 block baseline -0.1*.
Screening CCOC(=O)C(NC(=O)N1CCCCC1)(c1ccccc1)C(F)(F)F (stereo not drawn) returned KCNQ2 block inactive and KCNQ2 block baseline 0.42.
Screening CCNC(=O)CN(c1ccc(Oc2ccccc2)cc1)S(=O)(=O)c1ccccc1 returned KCNQ2 block inactive and KCNQ2 block baseline 0.49.
COc1ccc(-c2nnn(CC(=O)N(C3CCCCC3)C(C)C(=O)NC3CCCC3)n2)cc1OC (stereo not drawn) was read as KCNQ2 block inactive and KCNQ2 block baseline -2.8.
Cc1ccc(S(=O)(=O)Nc2nc3n(n2)C(c2ccc(Cl)cc2)CC(=O)N3)cc1 (stereo not drawn) was read as KCNQ2 block inactive and KCNQ2 block baseline -0.13.
`CCn1c(CSc2nc3ccccc3n2C)nc2ccccc21` gave KCNQ2 block inactive and KCNQ2 block baseline -0.66.
Screening Cc1ccc(NC(=S)Nc2ccc(OC(F)F)c(Cl)c2)cc1Cl returned KCNQ2 block inactive and KCNQ2 block baseline -1.3.
`CCOC(=O)Cn1c(=N)n(CCOc2ccc(OC)cc2)c2ccccc21` gave KCNQ2 block inactive and KCNQ2 block baseline -0.33.
`O=C(O)C1CCC(Cn2c(SCc3cc(=O)n4cc(Br)ccc4n3)nc3ccsc3c2=O)CC1` (stereo not drawn) gave KCNQ2 block inactive and KCNQ2 block baseline -0.75.
O=C(NC1CCCC1)C(c1ccc(Cl)cc1)N1CCc2ccccc21 (stereo not drawn) was read as KCNQ2 block inactive and KCNQ2 block baseline -2.3.
`Cc1ccc(-c2nc3ccccc3[nH]2)cc1NC(=S)NC(=O)c1ccccc1Br` gave KCNQ2 block inactive and KCNQ2 block baseline 0.22.
Screening CCCSc1ccc([C@H]2N[C@@](CC(C)C)(C(=O)OC)[C@H]3C(=O)N(C)C(=O)[C@@H]23)cc1 returned KCNQ2 block inactive and KCNQ2 block baseline -0.04.
Cc1ccsc1C1NC(=O)c2c(sc3c2CCN(C)C3)N1 (stereo not drawn) was read as KCNQ2 block inactive and KCNQ2 block baseline 5.3.
NC(=O)C1CCN(S(=O)(=O)c2ccc3c(c2)OCCO3)CC1 was read as KCNQ2 block inactive and KCNQ2 block baseline 1.1.
`COc1ccc(N(C(=O)CCl)C(C)(C(=O)Nc2c(C)cccc2C)c2ccccn2)cc1` (stereo not drawn) gave KCNQ2 block inactive and KCNQ2 block baseline 1.3.
`COc1ccc(OC)c(NC(=O)c2cnc3n(c2=O)CCS3)c1` gave KCNQ2 block inactive and KCNQ2 block baseline 0.76.
